gsp ag = activates gsp, the McCune-Albright syndrome mutation | gsp mutant cells, cAMP HTRF, 30 min; control for the full effect not named in the record | Potency, µM (series often up to 76.9 µM), inactives show at the highest dose activation (cAMP increase), usual class: activators | hit rate 0.13% among 340,000 | AID 624287; active = well fitted activation curve with a large enough effect; inconclusive = small, poorly fitted or top-dose-only effect, or another doubt; inactive = no such curve, though single readings can be large or run the other way; cell line not stated here;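 note: phosphodiesterase inhibitor Ro 20-1724 added with compounds to block cAMP breakdown; potency is the fitted concentration of half-maximal effect; nearly all actives have a fitted effect of over 60% in size; about a fifth of the inactives were tested at one dose only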
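Cells in DMEM/10% FBS with G418 were pretreated with compounds in DMSO plus […] (300 uM stock) for 30 min at 37C. cAMP was measured by HTRF (cAMP-d2 plus anti-cAMP antibody-K) after 30 min at room temperature.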
D2 agonist = agonists of human D2 dopamine receptor (beta-arrestin) | P14416 | DiscoveRx PathHunter D2 beta-arrestin, luminescence, 90 min; 100% = 57 uM dopamine signal | activation, % (concentration not given with the values) | hit rate 0.084% among 360,000 | AID 624465; in the data active = activation above about 40%; inconclusive = about 15% to 40%; inactive = below about 15%; note: compound concentration not given in the record; the text of the record calls up to 30% inactive
Target sequence (P14416 whole entry, looked up): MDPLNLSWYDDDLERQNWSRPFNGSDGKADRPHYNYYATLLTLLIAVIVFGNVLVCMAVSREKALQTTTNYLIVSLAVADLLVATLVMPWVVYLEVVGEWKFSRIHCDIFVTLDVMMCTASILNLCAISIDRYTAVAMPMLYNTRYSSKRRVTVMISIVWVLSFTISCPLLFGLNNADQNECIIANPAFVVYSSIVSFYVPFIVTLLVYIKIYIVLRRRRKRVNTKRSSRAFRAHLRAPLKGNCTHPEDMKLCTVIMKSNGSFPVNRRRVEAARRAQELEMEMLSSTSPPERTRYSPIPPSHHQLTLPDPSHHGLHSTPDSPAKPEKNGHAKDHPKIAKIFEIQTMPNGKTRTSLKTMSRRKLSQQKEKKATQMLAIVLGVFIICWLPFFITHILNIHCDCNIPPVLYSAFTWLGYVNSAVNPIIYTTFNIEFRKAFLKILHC
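Agonist mode: compounds alone added to overnight-plated D2 PathHunter cells for 90 min at 37 C, with 57 uM final dopamine (EC100) defining full response. Beta-arrestin recruitment detected by chemiluminescent reagent, read after 1 h at ambient temperature.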
gsp antagonist = gsp mutant antagonism; Potency, µM (highest dose often 76.9 µM), without a hit: top-dose activity change, negative = inhibition, most hits filed as inhibitors; gsp-mutant cells, cAMP HTRF, 30 min; control for the full effect not named in the record; hit rate 0.4% among 340,000; active = falling curve of any shape with a large fitted effect; inconclusive = falling curve, mostly with a smaller effect; inactive = flat or rising curve; cell line not stated here;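 note: intracellular cAMP measured with PDE inhibitor Ro 20-1724 present during compound exposure; potency is the fitted concentration of half-maximal effect; % is set by controls: 0 for no effect and ±100 for the full control effect; nearly all actives have a fitted effect of over 65% in size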
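G418-selected cells were plated in DMEM/10% FBS for 16-24 h at 37C, then treated with compounds plus the PDE inhibitor […] (300 uM solution added) for 30 min at 37C. Intracellular cAMP was measured by HTRF after 30 min lysis at room temperature.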
Menin MLL FP FL = inhibitors of human menin-MLL interaction, wild-type MLL peptide; AID 1766; Fluorescence polarization, fluorescein-MLL peptide displacement from menin; FP activity change, % at 61.4 µM; 290,000 tested, under 10 active; inconclusive = falling polarisation curve, or a change in total fluorescence; inactive = total fluorescence flat and polarisation flat or rising; no compound was filed as active; the % refers to the polarisation; negative = inhibition;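 note: % of control where 0% means no effect; inhibitors lower the polarisation; unlabelled MLL peptide was the positive control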
Sfp PPTase inh = Sfp phosphopantetheinyl transferase inhibition. Q9F4F7. Biochemical Sfp PPTase activity, qHTS. Potency, µM, for inactives: max response, negative = inhibition, actives largely listed as inhibitors. hit rate 3.5% among 310,000; active = well fitted inhibition curve with a large enough effect; inconclusive = small, poorly fitted or top-dose-only effect, or another doubt; inactive = no such curve, though single readings can be large or run the other way;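 note: the enzyme is Sfp with the accession as filed and its product quenches rhodamine fluorescence; potency is the fitted concentration of half-maximal effect; 0% = enzyme reaction without inhibitor and -100% = no enzyme wells; top concentration of the series not given in the record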
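Buffer: 50 mM Hepes-Na pH 7.6, 10 mM MgCl2, 0.01% Nonidet P-40, 0.01% BSA. Enzyme 15 nM, pre-exposed to compound 15 min; substrates then added and fluorescence change tracked over 30 min.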
ClpP mod = qHTS Assay for Activators of ClpP | purified B. subtilis ClpP, FRET peptide cleavage, 20 min | Potency, µM (top dose mostly 57.5 µM), inactives show at the highest dose activity change, negative = active | hit rate 1.9% among 340,000; active = well fitted falling curve with a large enough effect; inconclusive = small, poorly fitted or top-dose-only effect; inactive = no such curve, though single readings can be large or run the other way; note: potency is the fitted concentration of half-maximal effect; the source files actives as falling curves though it sought activators and does not explain the sign; nearly all actives have a fitted effect of over 65% in size; many hits overshoot -100%
Target sequence (P80244 whole entry, looked up): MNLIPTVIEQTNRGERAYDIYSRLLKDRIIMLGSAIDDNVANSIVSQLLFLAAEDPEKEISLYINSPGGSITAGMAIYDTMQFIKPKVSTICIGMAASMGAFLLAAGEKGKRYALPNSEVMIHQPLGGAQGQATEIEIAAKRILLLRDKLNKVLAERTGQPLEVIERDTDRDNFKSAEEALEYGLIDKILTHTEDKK
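FRET quenching reversal measured ClpP activation: 10 microg/mL B. subtilis ClpP at pH 8 with the FRET-FV decapeptide, read at 430 nm after 320 nm excitation. The 20-min minus 0-min signal was scaled between DMSO/no-enzyme wells and ADEP (5.8 microM final).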
PINK1 modulator = changes PINK1 expression; PINK1 immunofluorescence, high-content cytometry, 24 h; Potency, µM (highest dose often 76.6 µM), for inactives: at the highest dose activation (PINK1 increase), most hits filed as activators; hit rate 0.2% among 410,000; AID 624263; active = well fitted activation curve with a large enough effect; inconclusive = small, poorly fitted or top-dose-only effect; inactive = flat fitted curve, though single readings scatter; cell line not stated here;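 note: potency is the fitted concentration of half-maximal effect; % of control where 0% means no effect; nearly all actives have a fitted effect of over 65% in size; a mitochondrial uncoupler was the plate control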
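PINK1 protein level read as immunofluorescence by microplate cytometer in a fixed, stained stable cell line after 24 h exposure to five compound concentrations, with CCCP as control.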
* hit, by the source's call; ? = inconclusive; · = not tested or not shown; & = joins results of further samples; [ ] = dose if it differs, or a comment.

Order of results – gsp ag	D2 agonist	gsp antagonist	Menin MLL FP FL	Sfp PPTase inh	ClpP mod	PINK1 modulator
CCNCC(=O)N1c2ccccc2CCc2ccc(NC(C)=O)cc21
 : -57%	-1.9	0%	6.1	-14%	-4.4%	-2.8%[38.3 µM]
COc1ccc(-n2cnc3c(sc4nccc(N(C)C)c43)c2=O)cc1
 : 19%	3.9	21%	-0.1	-15%	14µM*	-2.4%
Cc1ccc(S(=O)(=O)N2CCOCC2)cc1C(=O)N1CC(C)OC(C)C1 (stereo unspecified)
 : -5%[15.4 µM]	-2.3	13%	·	·	-0.3%	-0.8%
COc1c(Br)cc([N+](=O)[O-])c(OC)c1C(=O)NC(=O)Nc1nc(C)cc(C)n1
 : -15%	-0.7	0%	-2.2	-2%	-1.2%	-3.5%
CC(C)c1ccc(C2OCCCO2)cc1
 : -2%	0.7	-13%	·	·	-1.9%	-0.6%
O=C(Oc1ccc(Cl)c2cccnc12)C12CC3CC(CC(C3)C1)C2
 : 2%	-5.2	10%	-2.1	?	-2.1%	?
O=C(O)CCCC(=O)NCCc1ccncc1
 : 4%	-4.1	1%	8.6	8%	0.1%	4.0%
Cc1ccc2c(c1)COc1c3ccc(C(=O)N[C@@H](CO)C(C)C)cc3nn1-2
 : ·	-4.0	-4%	0.3	-1%	3.5%	4.8%
CN(c1ccccc1)S(=O)(=O)c1ccc(C(=O)OCC(=O)NC(N)=O)cc1
 : -30%[inhibitor]	-4.6	3%	0.0	4%	-0.6%	4.2%
Cc1nn(C)cc1CNC(=O)c1ccc(F)cc1
 : -51%	-3.6	5%	6.3	5%	0.0%	6.4%
COc1ccccc1-n1c(CNC(=O)c2ccco2)n[nH]c1=S
 : 14%	-1.6	6%	4.5	-2%	-1.4%	-0.8%
CCOc1ccc(C(=O)CCC(=O)Nc2cccc(S(=O)(=O)N3CCCCC3)c2)cc1
 : 13%	-6.6	-19%	·	·	-1.2%	0.7%
Cc1ccc(NC(=O)COC(=O)c2ccc(F)cc2Cl)c(Br)c1
 : -9%[15.4 µM]	-3.6	-17%	0.0	22%	·	10%
Cc1ccc(S(=O)(=O)N2CCN(C(=O)COC(=O)CSc3ccccc3)CC2)c(C)c1
 : ?	-8.1	-17%	·	·	0.2%	-4.8%
CC(=O)c1cc(Cl)ccc1OCc1cccc(S(=O)(=O)N2CCOCC2)c1
 : -8%	0.5	35µM*	·	·	-8.2%	2.5%
O=C(N/N=C/c1ccncc1)NC12CC3CC(CC(C3)C1)C2
 : 32%	-5.6	6%	-0.7	-4%	-1.7%	0.9%
CCOC(=O)CNC(=O)N1CCC(CCC(=O)N(C)Cc2ccccc2)CC1
 : -35%[inhibitor]	7.7	-2%	5.1	18%	·	0.6%
CCOC(=O)c1c(NC(=O)CN2C(=O)NC3(CCC(CC)CC3)C2=O)sc(C)c1-c1ccc(C)cc1 (stereo unspecified)
 : -8%	-2.2	13%	1.5	0%	-7.7%	11%
CC(=O)N1CCN(c2ccc(NCc3ccc(F)cc3)cc2)CC1
 : -15%	?	-10%	-0.1	40µM*	1.7%	2.4%
O=C(OCc1cc2ccccc2[nH]c1=O)c1ccccn1
 : 26%	1.0	3%	1.7	4%	-10%	0.7%

Further results follow:
Order of results – gsp ag	D2 agonist	gsp antagonist	Menin MLL FP FL	Sfp PPTase inh	ClpP mod	PINK1 modulator
CCOc1ccc(NC(=O)CN(C)C(=O)Cn2c(=O)oc3ccccc32)cc1OCC
 : 5%	-5.4	-3%	·	·	1.4%	-4.3%
Cc1ccc(C(C)NC(=O)Cc2cccs2)c(C)c1 (stereo unspecified)
 : -40%[15.4 µM]	0.6	-4%	-5.0	9%	-1.4%	0.7%
NC(=O)c1c(/N=C/c2cccs2)sc2c1CCCC2
 : ?	-3.0	1%	-1.7	-11%	-16%	3.8%
CCOC(=O)c1ccc(NC(=S)NCCCN2CCCC2=O)cc1
 : 10%[15.4 µM]	3.7	-2%	3.9	4%	?	3.9%
COc1ccc(CC(=O)NNC2=Nc3cccc4cccc2c34)cc1OC
 : 3%	-4.2	-7%	9.3	8%	0.1%	20%
CC1(NC(=O)N2CCCCC2)CCS(=O)(=O)C1 (stereo unspecified)
 : 5%	-2.9	6%	1.1	19%	-0.1%	-2.2%
CC(C(=O)NC1CCCc2ccccc21)N1CCN(Cc2ccc3c(c2)OCO3)CC1 (stereo unspecified)
 : -30%	-5.3	6%	1.2	9%	0.1%	-2.6%
Cc1noc(C)c1S(=O)(=O)N(CC(=O)NCc1ccccc1)c1ccc(C(C)C)cc1
 : 24%	-0.9	-12%	·	14%	-1.9%&7.9%	6.2%&6.0%
COc1ccc(C(CNC(=O)C(C)Oc2ccc(Br)cc2)N2CCCC2)cc1 (stereo unspecified)
 : -22%	-6.6	12%	·	·	-4.2%	2.2%
COC(=O)Nc1nc2ccc(Br)cc2s1
 : 18%[15.4 µM]	-4.3	-4%	-0.4	15%	·	3.7%
COc1ccc(OC)c2c(C)cc(N3CCCN(C)CC3)nc12
 : -29%	2.5	-7%	4.5	-2%	?	-1.0%[38.3 µM]
O=C(C1CCCN(Cc2nc(-c3ccc(Cl)cc3)no2)C1)N1CCOCC1 (stereo unspecified)
 : -3%	-0.6	8%	0.1	12%	3.2%	-1.3%
CC1Cc2ccccc2N1C(=O)CSCC(=O)O (stereo unspecified)
 : -38%	-3.8	5%	2.7	15%	-11%	0.7%
Cc1c([N+](=O)[O-])cc(C(=O)Nc2ccc3ncccc3c2)cc1[N+](=O)[O-]
 : 7%[15.4 µM]	5.4	0%	2.8	8%	-0.8%	3.6%
COc1ccc(-n2c(Cc3cccn3C)nnc2SCC(=O)N2CCOCC2)cc1
 : -36%[inhibitor]	-2.4	6%	2.0	2%	-1.3%	-3.4%
CCOC(=O)C1(CCOc2ccccc2)CCN(Cc2cccs2)CC1
 : 2%[15.4 µM]	-2.1	-14%	-6.9	12%	·	16%
Cc1ccccc1NC(=O)Cn1nc(C)c2ccccc2c1=O
 : 0%[15.4 µM]	4.8	8%	-2.9	9%	0.4%	0.6%
COc1ccc(CNC(=O)COC(=O)CCc2c[nH]c3ccccc23)cc1
 : -12%	-5.6	-1%	-2.1	14%	-1.1%	5.3%
COCCNC(=O)C1(C)CCCN(C(=O)c2cnc3ccccc3n2)C1 (stereo unspecified)
 : ·	-5.3	·	·	·	1.3%	-0.4%
Cc1ccc(-c2n[nH]c(=O)c3ccccc23)cc1S(=O)(=O)NCCN1CCOCC1
 : 30%	-3.5	0%	0.1	6%	-0.2%	1.5%

The list goes on.
Order of results – gsp ag	D2 agonist	gsp antagonist	Menin MLL FP FL	Sfp PPTase inh	ClpP mod	PINK1 modulator
COc1ccc(S(=O)(=O)c2c(O)c3ccc(C(=O)Nc4ccccc4F)cc3[nH]c2=O)cc1
 : ?	-4.4	5%	1.6	24%	-27%	-1.5%
COc1ccccc1NC(=O)Nc1ccc2c(c1)OCCO2
 : -1%	-2.9	-6%	0.3	8%	-1.4%	1.8%
Cc1n[nH]c(=O)c2c(NC(=O)CSc3cc(Cl)ccc3Cl)oc(C)c12
 : ?	-0.2	-4%	·	·	0.8%	3.1%
CCOC(=O)C1CCN(CC(O)COC(CC)c2ccccc2)CC1 (stereo unspecified)
 : 10%	-0.7	9%	-10	7%	0.6%	8.6%
CCN(Cc1ccccc1)S(=O)(=O)c1ccc(S(=O)(=O)N2CCN(CCC#N)CC2)cc1
 : 16%	-3.1	3%	1.6	2%	0.1%	1.8%
Cc1ccc(Nc2cc(C)nc(-c3ccccc3)n2)cc1
 : -4%	-3.0	5%	-5.7	2%	-4.7%	3.7%
COc1ccc(NC(=O)NC2CCCc3ccccc32)cc1OC (stereo unspecified)
 : ?	-4.3	12%	·	8%	-0.1%	6.8%
O=C(OC1CSc2nc3ccccc3n2C1)c1ccco1 (stereo unspecified)
 : -2%	1.5	1%	4.1	21%	-3.8%	1.5%
CC(O)(c1ccccc1)c1nc(-c2csc3ccccc23)cs1 (stereo unspecified)
 : ·	6.0	·	·	·	-3.6%	7.5%
Cc1[nH]c2ccccc2c1/C=N/NC(=O)c1cc(-c2ccccc2)n[nH]1
 : -5%[15.4 µM]	1.7	-11%	-1.4	2%	·	0.1%
COc1ccc(NC(=O)CCOc2ccccc2)cc1
 : -1%	-0.4	4%	-1.1	-6%	-2.5%	0.3%
O=C(COc1ccccc1Cl)NCCNC(=O)c1cccnc1
 : 4%[15.4 µM]	-0.8	?	1.3	6%	·	1.3%
Cc1cc(C)c(NC(=O)CS(=O)CC(=O)Nc2ccc(N3CCOCC3)cc2)c(C)c1 (stereo unspecified)
 : 15%	1.3	-5%	0.2	16%	·	0.7%
COC(=O)c1cnc(Nc2nc(C(N)COCc3ccccc3)cs2)nc1C(F)(F)F (stereo unspecified)
 : ·	-2.3	·	·	·	3.0%	9.0%
COc1ccc(CN2C(=O)C(CC(=O)NCCN3CCOCC3)CC(C(=O)N(C(C)C)C(C)C)=C2C)cc1 (stereo unspecified)
 : 15%	-1.1	·	·	·	0.7%	1.9%
CCOC(=O)Nc1sc(C)nc1-c1ccccc1
 : -2%	0.0	4%	1.1	23%	-2.0%	3.3%[38.3 µM]
CC(=O)Nc1cc(NC(C)=O)c(CC(C)C)s1
 : -8%	-1.7	6%	1.7	-2%	-1.9%	-2.2%
Cc1cccc(N2CCN(c3ccc(C(N)=O)cc3[N+](=O)[O-])CC2)c1C
 : -8%	3.4	-2%	0.0	-7%	·	0.9%
CSCCC(NC(=O)C12CC3CC(CC(C3)C1)C2)C(=O)OCC(=O)c1ccc(C)cc1 (stereo unspecified)
 : ?	-3.8	11%	2.2	1%	-3.4%	0.0%
c1ccc(-n2ncc3c(NCC4CCCO4)ncnc32)cc1 (stereo unspecified)
 : -4%	-3.6	8%	4.3	3%	?	4.8%
COc1ccc(/C=C/C(=O)OCC(=O)Nc2ccc(S(N)(=O)=O)cc2)cc1OC
 : 25%	-5.5	5%	2.3	6%	?	-0.6%
N#CCCN(Cc1ccccc1)C(=O)CCC(=O)c1ccc(F)cc1
 : -11%	-6.8	·	·	·	-0.1%	-1.2%

Bioassay records (PubChem)
